Screening data from PubChem BioAssay.
Bfl-1 A1 inh: inhibitors of the anti-apoptotic protein A1, read as caspase activation; MEF A1-2A-BIM cells, Caspase-Glo 3/7 luminescence, 3 h; percent of clofoctol response, vehicle zero; caspase activation, % (no concentration beside the values); actives 0.066% (n = 330,000); AID 2462;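 active means over half of replicate activation scores above 10%, or exactly half above 10 with the replicate mean above 10; inconclusive means replicate mean below 10 yet half the replicates above 10; inactive means over half of replicates below 10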;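 further: wells of about 30 µL received 50 nL stock; many hits fall short of the cut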
UCH37 inh: blocks the human deubiquitinase UCH37; Q9Y5K5; purified proteasome/UCH37, Ub-AMC cleavage fluorescence; inhibition, % (concentration not given with the values); actives 0.33% (n = 330,000); AID 588478;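 active means mean of two replicates above 20%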;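 further: 0% = compound-free wells with enzyme and 100% = wells lacking proteasome; stock transfer was 100 nL into about 20 µL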
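Material: Human UCH37 enzyme supplied as purified proteasome complex | Schedule: 30 min compound-proteasome preincubation then 25 min substrate reaction, room temperature | Detection: AMC fluorescence from Ub-AMC cleavage, excitation 355 nm, emission 460 nm | Benchmarks: Wells without proteasome as full block, compound-free enzyme plus substrate as uninhibited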
HNF4A DNA FP: change in binding of human HNF4 alpha to DNA; HNF4a-FITC DNA binding, fluorescence polarization, 1 h; activity change, % at 10 µM; actives 0.3% (n = 360,000); AID 1224865; in the data active means activity change above about 30%, passing the limit was not always enough;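 further: controls were the assay level and a saturating level of protein; the project sought stronger binding though the title names inhibitors; some compounds called inactive have numbers as strong as hits; positive values seem to mean higher polarization but the record does not say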
Target sequence (P41235 whole entry, looked up): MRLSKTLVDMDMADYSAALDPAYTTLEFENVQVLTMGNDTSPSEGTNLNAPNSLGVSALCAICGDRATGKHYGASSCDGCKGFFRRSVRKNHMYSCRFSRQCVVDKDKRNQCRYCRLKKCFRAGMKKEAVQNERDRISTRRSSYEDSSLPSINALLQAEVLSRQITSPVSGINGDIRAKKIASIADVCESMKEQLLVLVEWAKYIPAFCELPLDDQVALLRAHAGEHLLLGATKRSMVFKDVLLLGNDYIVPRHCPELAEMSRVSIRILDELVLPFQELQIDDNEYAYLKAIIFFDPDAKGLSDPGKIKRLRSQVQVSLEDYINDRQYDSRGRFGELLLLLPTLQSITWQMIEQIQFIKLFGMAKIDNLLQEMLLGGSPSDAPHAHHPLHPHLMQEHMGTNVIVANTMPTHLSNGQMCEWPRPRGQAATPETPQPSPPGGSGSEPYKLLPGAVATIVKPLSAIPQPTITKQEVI
LANA-H2A inh: blocks KSHV LANA binding to histone H2A/H2B; Q9QR71; cell-free LANA-H2A/H2B peptide, fluorescence polarization; inhibition, % (no concentration beside the values); actives 0.6% (n = 320,000); AID 2629; in the data active means inhibition mostly above about 10%, no sharp cut-off; inactive means mostly below about 6.7%;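 further: stock transfer was 7.5 nL into about 10 µL; 0% = median of vehicle wells and 100% = median of positive control wells; one replicate is shown; the record names a cut of 25% in any replicate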
B2AR ag: activates human beta-2 adrenergic receptor causing internalization; P07550; response, % (test concentration not listed); Am2.2-beta2AR cells, FAP receptor internalization, flow cytometry; reference of the scale not given here; actives 0.43% (n = 340,000);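 active means response above a set limit, near 3 SD of response in nonfluorescent compounds, cut at about 42% in these data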;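 further: stock transfer was 100 nL into about 11 µL; a reference agonist was the positive control; negative values mostly stem from fluorescent compounds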
Target sequence (P07550 whole entry, looked up): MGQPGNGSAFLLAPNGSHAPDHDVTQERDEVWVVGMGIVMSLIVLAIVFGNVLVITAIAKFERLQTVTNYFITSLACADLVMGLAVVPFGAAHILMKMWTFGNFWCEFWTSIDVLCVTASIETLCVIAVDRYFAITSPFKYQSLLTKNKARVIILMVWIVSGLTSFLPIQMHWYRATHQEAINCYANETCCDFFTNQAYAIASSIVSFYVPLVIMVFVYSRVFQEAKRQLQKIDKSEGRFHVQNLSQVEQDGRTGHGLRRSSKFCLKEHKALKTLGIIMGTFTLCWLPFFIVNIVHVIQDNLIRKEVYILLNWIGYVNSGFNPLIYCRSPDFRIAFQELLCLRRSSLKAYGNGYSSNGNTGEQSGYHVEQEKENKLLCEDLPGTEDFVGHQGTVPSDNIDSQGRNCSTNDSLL
Ecoli growth: blocks Escherichia coli growth | OD600, 23 h; stronger effect = lower value | OD600 absorbance (no concentration beside the values) | actives 0.21% (n = 330,000);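 active means OD600 absorbance below the run mean of sample wells minus 3.6 SD, in any replicate, cut at about 0.56 in these data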;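 further: stock transfer was 300 nL into about 60 µL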
Vif TR-FRET: HIV-1 Vif–A3G interaction blockers – biochemical, TR-FRET, GST-Vif 1-94, biotin-A3G peptide, dose response retest, primary screen (AID 1117319) | TR-FRET GST-Vif / biotin-A3G peptide binding; higher % means a stronger effect; test concentration not given here; strong numbers were not always called active | inhibition, %; hits with a dose series show IC50 in µM | actives 0.57% (n = 260,000);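 active means above the screen mean plus three standard deviations and confirmed in dose response; inconclusive means results disagree or hit not tested in dose response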;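 further: Vif residues 1-94 fused to GST binding biotinylated APOBEC3G peptide 110-148; 0% = full assay without inhibitor and 100% = GST in place of GST-Vif; retest series ran down from 100 µM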
An asterisk follows results filed as active; ? = inconclusive; / = no result given; & = joins results of further samples. An unsorted share of the library, and some 2.1% of all compounds hit somewhere here.

The first three entries, to show the layout:
SMILES	Bfl-1 A1 inh	UCH37 inh	HNF4A DNA FP	LANA-H2A inh	B2AR ag	Ecoli growth	Vif TR-FRET
CCN(Cc1cnn(C)c1)C(=O)CC1C(=O)NCCN1Cc1cccc(OC)c1OC (stereo unspecified)	0.1	1.1	-1.9	4.9	-1	0.69	6%
O=C(NCc1ccccc1Cl)c1cnccn1	1.3	4.3	3.7	-5.0	5	0.81	-1%
c1ccc(C2[C@H]3CN(CC4CCCCC4)[C@H](c4ccccc4)C34CC2(c2cccnc2)C4)cc1 (stereo partly specified)	0.3	1.6	7.1	-1.0	1	/	/

All compounds of this part, from the first entry:
SMILES	Bfl-1 A1 inh	UCH37 inh	HNF4A DNA FP	LANA-H2A inh	B2AR ag	Ecoli growth	Vif TR-FRET
CCN(Cc1cnn(C)c1)C(=O)CC1C(=O)NCCN1Cc1cccc(OC)c1OC (stereo unspecified)	0.1	1.1	-1.9	4.9	-1	0.69	6%
O=C(NCc1ccccc1Cl)c1cnccn1	1.3	4.3	3.7	-5.0	5	0.81	-1%
c1ccc(C2[C@H]3CN(CC4CCCCC4)[C@H](c4ccccc4)C34CC2(c2cccnc2)C4)cc1 (stereo partly specified)	0.3	1.6	7.1	-1.0	1	/	/
CCOc1cc(/C=N/O)cc(Br)c1OCC(=O)NCc1ccccc1	1.1	/	-1.5	0.8	-4	/	/
Nc1cc(Cl)ccc1C(=O)OCC(=O)N1CCCC1	0.8	/	-3.2	4.4	-6	/	/
CCOc1ccc(C(=O)NCC(=O)N2CCN(c3ccccc3O)CC2)cc1	-0.3	1.4	-0.2	1.8	-3	0.67	/
CC1(C)CC(=O)C2=C(C1)OC1=C(C(=O)CC(C)(C)C1)C2c1ccc(O)c([N+](=O)[O-])c1	-1.0	6.3	-2.5	0.0	8	0.72	9%
Cc1cc(Cl)ccc1OCCCC(=O)NCc1ccccn1	0.7	3.9	-1.9	2.7	-5	0.71	3%
O=C(O)CCC(=O)Nc1ccc(Br)cc1C(=O)c1ccc(Cl)cc1	0.9	4.0	0.3	-7.6	-2	0.68	-1%
CCOc1ccc(/C=C/C(=O)OC(C)C(=O)NC2CCCCC2C)cc1OC (stereo unspecified)	-0.1	-100	-0.1	-11	-5	0.7	0%
CCN(CC(=O)NC1CC1)S(=O)(=O)c1ccccc1	0.0	-1.4	-2.0	-3.1	-17	0.69	/
CCN(CC)c1ccc(/C=N/NC(=O)c2c(Cl)c(C)nn2C)cc1	0.1	/	-0.7	-0.7	1	/	-2%
CCOC(=O)N1c2ccccc2C=CC1OCC (stereo unspecified)	-0.8	/	/	-16	/	/	-1%
COc1ccc(C)cc1NC(=O)C1CCN(C(=O)C2CC(=O)N(c3ccc(C)cc3)C2)CC1 (stereo unspecified)	0.6	-1.0	-1.4	0.1	-1	0.68	/
COc1cc(/C=C2\C(=O)N(c3ccccc3)N=C2C)ccc1Oc1ccc([N+](=O)[O-])cc1[N+](=O)[O-]	0.8	5.9	-2.1	-1.9	22	0.67	17%
Cc1c(NC(=O)c2ccc(N3C(=O)C4C5C=CC(C5)C4C3=O)cc2)c(=O)n(-c2ccccc2)n1C (stereo unspecified)	-0.3	2.4	0.1	2.0	-3	0.73	30%
C[C@@H]1CC=C[C@H]2[C@H]1C(=O)N(Cc1ccccc1)[C@H]2c1ccc(C(F)(F)F)cc1	-1.0	0.7	-2.5	-0.7	11	/	/
COc1ccccc1OCC(=O)Nc1cccc(S(=O)(=O)NC2=NCCCCC2)c1	-0.4	-1.8	-0.1	/	2	0.66	7%
CCOC(=O)C1CCN(C(=S)Nc2ccc(C)cc2)CC1	0.6	3.9	-0.1	-2.4	6	0.7	3%
CCCC(=Nc1ccccc1)C1=C(O)C(C(=O)OC)C(C)(C)CC1=O (stereo unspecified)	0.9	1.6	-0.6	6.3	1	0.64	27%
COc1ccc(C(=O)NC(=S)N2CCNC(=O)C2CC(=O)OC(C)C)cc1 (stereo unspecified)	-0.1	1.5	1.5	-1.1	2	0.7	-3%
COc1cc(C(=O)N2CCC(NC(=O)C(Cc3ccccc3)NC(C)=O)CC2)cc(OC)c1OC (stereo unspecified)	-0.4	-0.7	-0.3	1.4	7	0.7	8%
OCC[C@H]1C[C@H](O)[C@@H](O)[C@]2(CCCc3ccccc3O2)O1	0.0	3.8	0.5	-4.1	0	/	/
O=C(Cc1c(O)c2ccccc2[nH]c1=O)N(Cc1ccccc1)Cc1ccccc1	1.7	5.9	0.2	-0.7	2	0.74	12%
CCOC(=O)N1CCN(C(=O)CCC(=O)N2CCOc3ccc(C)cc32)CC1	0.3	2.2	1.4	2.0	2	0.71	-3%

Remaining list, next part
SMILES	Bfl-1 A1 inh	UCH37 inh	HNF4A DNA FP	LANA-H2A inh	B2AR ag	Ecoli growth	Vif TR-FRET
O=C(Nc1c[nH]c(=O)[nH]c1=O)c1ccc([N+](=O)[O-])cc1	-1.3	1.0	0.1	-0.1	-4	0.66	-7%
COc1ccc(NS(=O)(=O)c2cc(NC(=O)CC3CCCC3)ccc2N2CCOCC2)cc1	1.7	4.2	2.2	3.3	-2	0.67	3%
O=C(NC1CCS(=O)(=O)C1)c1cccc(S(=O)(=O)N2CCCCCC2)c1 (stereo unspecified)	1.2	1.8	0.6	-4.2	7	0.59	/
CC(C)CCNC(=O)C12CN(Cc3ccccc3)CC1C(c1cccc([N+](=O)[O-])c1)=NO2 (stereo unspecified)	-1.7	5.3	-0.6	1.4	-4	0.73	?
COc1ccccc1C(=O)N/C(=C/c1ccc(Br)cc1)C(=O)N1CCCC1	1.4	0.5	0.4	1.9	-3	0.68	1%
COc1ccc(CNC(=O)CN2C(=O)NC(Cc3ccccc3)(c3ccccc3)C2=O)cc1OC (stereo unspecified)	/	2.6	2.4	/	6	0.69	/
O=C(CN1C(=O)/C(=C/c2ccccc2)SC1=S)NNC(=O)c1ccccc1O	-0.3	5.3	-2.9	0.8	2	0.62	6%
Cc1c(O)nc(SCC(=O)Nc2nccs2)n(-c2ccccc2F)c1=O	-0.5	0.6	0.5	-8.0	-1	0.7	/
COC(=O)c1ccccc1NC(=O)C/C(C)=N/NC(=O)Cc1ccc(Cl)cc1	0.7	/	-3.5	1.1	-10	/	/
O=C(Nc1cccc(Cl)c1N1CCOCC1)c1cccs1	-0.3	1.5	-6.3	4.5	-2	0.67	/
CCc1ccc(NC(=O)C(CC)c2ccccc2)cc1 (stereo unspecified)	-0.1	3.3	1.4	1.6	12	0.72	-5%
Cc1cccc(C)c1NC(=O)CSc1nc(-c2ccco2)cc(C(F)(F)F)n1	-1.1	1.6	5.1	-2.7	-8	0.65	-2%
COc1ccccc1N1CCN(C(=O)C2CCN(S(=O)(=O)c3ccc4c(c3)CC(C)N4C(=O)C3CC3)CC2)CC1 (stereo unspecified)	-0.4	1.4	1.3	-0.7	3	0.65	/
O=C(CSc1nc(-c2ccccc2)cc(C(F)(F)F)n1)c1cccc([N+](=O)[O-])c1	0.5	4.1	-1.2	-4.4	-13	0.72	68%
C=CCn1c(=S)[nH]c2sc3c(c2c1=O)CCC3	/	7.3	1.4	/	-8	0.7	-4%
CC(=O)Nc1ccc(NC(=O)CSc2nnc(CC(C)O)n2-c2ccccc2)cc1 (stereo unspecified)	0.2	2.4	-1.9	5.0	-1	0.68	/
CCOC(=O)c1ccc(NCc2nc3ccccc3n2C)cc1	-0.9	2.2	0.1	0.8	-18	0.67	-1%
CCOC(=O)c1cc(C#N)c(SCc2ccc(C#N)cc2)nc1C	-0.2	-0.3	-1.0	-5.5	-1	0.71	-13%&-61%
CCn1c(NCCc2ccc(OC)c(OC)c2)nc2c1c(=O)n(C)c(=O)n2C	-0.1	-1.9	0.1	9.8	3	0.71	/
COc1ccc(Br)cc1C(=O)Nc1nnn(C)n1	0.0	1.0	-0.8	1.5	-17	0.69	-6%
CCCCCSc1nnc(N)s1	-0.2	5.6	2.2	-1.9	-3	0.61	-6%
CCOc1ccc(C(=O)NCc2ccco2)cc1OCC	0.4	2.2	2.2	-0.3	-5	0.64	/
CCN1CCN(CCOCCOc2ccccc2)CC1	-0.6	-2.0	2.3	1.5	5	0.65	/
COc1ccc(-n2cnc3scc(-c4ccccc4)c3c2=O)cc1	0.4	2.3	0.1	-3.4	-11	0.67	-10%
CCCCn1c(N)c(N(CCOC)C(=O)c2sc3ccccc3c2Cl)c(=O)[nH]c1=O	1.0	/	3.3	0.3	-6	/	/

Next part.
SMILES	Bfl-1 A1 inh	UCH37 inh	HNF4A DNA FP	LANA-H2A inh	B2AR ag	Ecoli growth	Vif TR-FRET
CCc1noc(C)c1C(=O)Nc1nc(-c2ccc(OC)cc2)cs1	0.0	-0.6	-4.3	-0.4	5	0.67	-4%
Cc1c(C(=O)NCC2CCCO2)oc2ccc3c(c12)C(=O)CC(C)(C)O3 (stereo unspecified)	0.3	-67	-2.0	0.0	2	0.68	31%
CSc1ccc(/C=C(/NC(=O)c2ccco2)C(=O)N2CCCCCC2)cc1	0.6	5.3	-0.1	-4.0	-16	0.69	/
Cc1cc([N+](=O)[O-])nn1CCCC(=O)Nc1c(C)n(C)n(-c2ccccc2)c1=O	0.8	-0.2	1.2	-1.3	4	0.7	/
Cc1cc(C)nc(NS(=O)(=O)c2ccc(NC(=O)c3snnc3C)cc2)n1	-0.3	5.5	1.4	0.4	0	0.67	/
COc1ccc(N(C)S(=O)(=O)c2cccc(C(=O)NC3CCCCCC3)c2)cc1	0.1	/	1.2	-2.1	0	/	-2%
Cc1cccc(OCCCn2ccnc2)c1	0.6	1.8	-2.1	-1.7	-4	0.61	-6%
CCc1ccc(NC(=O)C(NS(=O)(=O)c2cccc3nsnc23)c2ccccc2)cc1 (stereo unspecified)	0.6	/	2.8	-3.7	4	/	3%
C[C@H]1CN([C@@H](C)CO)C(=O)c2cc(NC(=O)Cc3ccccc3)ccc2O[C@H]1CN(C)Cc1ccccc1	0.0	0.6	2.3	9.2	4	0.76	/
C/C(N)=C(/C#N)C(=O)CSc1nnc(C)n1-c1ccccc1	?	1.3	14	-2.9	-2	0.66	9%
C=CCN(C(=O)CNS(=O)(=O)c1ccccc1)C(C(=O)NCCOC)c1cccnc1 (stereo unspecified)	1.6	4.9	-1.4	4.8	5	0.72	/
N#Cc1c(-n2ccnc2)cccc1-n1ccnc1	-0.1	5.5	1.2	1.4	-5	0.65	-1%
COc1ccc(C(=O)Nn2cnc3scc(-c4cccs4)c3c2=O)c(O)c1	0.2	-0.4	-2.5	-6.8	9	0.69	0%
COc1ccccc1[C@@H]1C(c2cccc(C)c2)=NN(c2ccc(Br)cc2)[C@H]1C(=O)N1CCOC1=O	/	-285	-2.4	/	4	0.73	-4%
CCN1C(=O)/C(=C/c2ccc(OCc3ccc(C(=O)O)cc3)c(Cl)c2)NC1=S	-0.3	8.5	2.3	-0.1	11	0.69	2%
CC(=O)Nc1c(Br)cc2c(c1Br)Cc1cc([N+](=O)[O-])ccc1-2	/	6.1	5.0	/	8	0.64	-400%
O=C(O)c1cc(-c2ccco2)[nH]n1	-0.2	8.2	-3.9	-0.6	3	0.65	?
O=C(COC(=O)C12CC3CC(CC(Br)(C3)C1)C2)Nc1c(F)cccc1F	-0.8	1.3	-1.6	8.8	6	0.69	/
CCn1c(C)cc(/C=C2/NC(=O)N(Cc3ccccc3F)C2=O)c1C	0.7	-15	-1.2	2.1	5	0.71	-7%
O=c1ccc(NS(=O)(=O)c2ccccc2Cl)cn1Cc1ccc(Cl)c(Cl)c1	0.3	3.9	6.5	0.5	7	0.68	-1%
CCOC(=O)c1cccc(P(C)(C)=O)c1	0.0	4.4	-1.0	2.5	0	0.69	/
COc1ccc(N2CCC(CNC(=S)Nc3cccc(C)c3)C2)cc1 (stereo unspecified)	0.5	4.1	11	0.8	0	0.73	/
